# Screening data: PubChem, National Center for Advancing Translational Sciences (NCATS)
# D2 agonist = activates the human D2 dopamine receptor; DiscoveRx PathHunter D2 beta-arrestin, luminescence, 90 min; 100% = 57 uM dopamine signal; activation, % (concentration not given with the values); 360,000 tested, 0.084% active; in the data active = activation above about 40%; inconclusive = about 15% to 40%; inactive = below about 15%; note: compound concentration not given in the record; the text of the record calls up to 30% inactive
#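 Agonist mode: compounds alone added to overnight-plated D2 PathHunter cells for 90 min at 37 C, with 57 uM final dopamine (EC100) defining full response. Beta-arrestin recruitment detected by chemiluminescent reagent, read after 1 h at ambient temperature.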
# D2 PAM = potentiates the human D2 dopamine receptor allosterically | 360,000 tested, 0.23% active | potentiation, % (concentration not given with the values) | P14416 | AID 624464 | DiscoveRx D2 beta-arrestin cells, luminescence, 90 min; 100% = 57 uM dopamine signal; active = potentiation of 50% or more; inconclusive = 30% to 50%; inactive = 30% or less;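 note: compound concentration not given in the record; tested on top of an EC20 dose of dopamine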
#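 PathHunter D2 cells, attached overnight at 37 deg C, received compound in DMSO plus dopamine at EC20 (50 nM final) for 90 min at 37 deg C. Beta-arrestin recruitment was read as luminescence after 1 h with detection reagent at ambient temperature.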
# CtBP-E1A inh = blocks the CtBP interaction with E1A | AlphaScreen GST-E1A/His-CtBP binding, 1536-well; active compounds read low; control for the full effect not named in the record | activity change, % (no concentration beside the values) | 340,000 tested, 0.49% active | AID 651724; in the data active means activity change below about -65%; inconclusive means about -30% to -65%; inactive means above about -30%; note: % is set by controls: 0 for no effect and ±100 for the full control effect
#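 AlphaScreen with 125 nM GST-E1A and 125 nM His-CtBP (5X stocks) in Tris pH 8.0, 300 mM NaCl, BSA, Tween 20, TCEP. Compounds preincubated 2 h at 37 deg C, then glutathione donor/nickel acceptor beads added for 1 h at 37 deg C in dark.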
# gsp antagonist = antagonizes gsp, the McCune-Albright syndrome mutation. gsp-mutant cells, cAMP HTRF, 30 min; control for the full effect not named in the record. Potency, µM (top dose mostly 76.9 µM), for the others: top-dose activity change, negative = inhibition, usual class: inhibitors. 340,000 tested, 0.4% active. AID 624288; active = falling curve of any shape with a large fitted effect; inconclusive = falling curve, mostly with a smaller effect; inactive = flat or rising curve; cell line not stated here;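 note: intracellular cAMP measured with PDE inhibitor Ro 20-1724 present during compound exposure; potency is the fitted concentration of half-maximal effect; % is set by controls: 0 for no effect and ±100 for the full control effect; nearly all actives have a fitted effect of over 65% in size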
#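 G418-selected cells were plated in DMEM/10% FBS for 16-24 h at 37C, then treated with compounds plus the PDE inhibitor […] (300 uM solution added) for 30 min at 37C. Intracellular cAMP was measured by HTRF after 30 min lysis at room temperature.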
# gsp agonist = agonists of gsp mutant (McCune-Albright syndrome); 340,000 tested, 0.13% active; Potency, µM (doses to about 76.9 µM), without a hit: at the top dose activation (cAMP increase), usual class: activators; gsp mutant cells, cAMP HTRF, 30 min; control for the full effect not named in the record; active = well fitted activation curve with a large enough effect; inconclusive = small, poorly fitted or top-dose-only effect, or another doubt; inactive = no such curve, though single readings can be large or run the other way; cell line not stated here;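 note: phosphodiesterase inhibitor Ro 20-1724 added with compounds to block cAMP breakdown; potency is the fitted concentration of half-maximal effect; nearly all actives have a fitted effect of over 60% in size; about a fifth of the inactives were tested at one dose only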
#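 Cells in DMEM/10% FBS with G418 were pretreated with compounds in DMSO plus […] (300 uM stock) for 30 min at 37C. cAMP was measured by HTRF (cAMP-d2 plus anti-cAMP antibody-K) after 30 min at room temperature.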
# Six1-Eya2 inh = inhibitors of human Six1/Eya2 interaction; AlphaScreen GST-Six1/His-Eya2 binding, biochemical; active compounds read low; control for the full effect not named in the record; activity change, % (test concentration not listed); 360,000 tested, 0.56% active; AID 651725; in the data active = activity change below about -65%; inconclusive = about -30% to -65%; inactive = above about -30%; note: % is set by controls: 0 for no effect and ±100 for the full control effect
# Target sequence (O00167 whole entry, looked up): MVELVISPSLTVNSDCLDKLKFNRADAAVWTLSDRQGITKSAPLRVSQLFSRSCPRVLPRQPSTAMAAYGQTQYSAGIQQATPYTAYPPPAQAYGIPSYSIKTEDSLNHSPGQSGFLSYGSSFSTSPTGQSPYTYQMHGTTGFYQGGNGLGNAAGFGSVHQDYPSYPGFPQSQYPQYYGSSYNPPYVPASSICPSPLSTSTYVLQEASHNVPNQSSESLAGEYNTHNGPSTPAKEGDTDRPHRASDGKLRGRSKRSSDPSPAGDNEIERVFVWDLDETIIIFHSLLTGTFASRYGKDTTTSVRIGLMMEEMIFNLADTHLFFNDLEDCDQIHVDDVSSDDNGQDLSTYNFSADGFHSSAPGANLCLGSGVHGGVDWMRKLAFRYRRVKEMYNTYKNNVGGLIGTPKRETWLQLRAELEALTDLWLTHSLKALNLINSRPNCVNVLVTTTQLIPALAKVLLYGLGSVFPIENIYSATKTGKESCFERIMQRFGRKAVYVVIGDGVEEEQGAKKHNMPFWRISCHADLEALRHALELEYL
# Target sequence (Q15475 whole entry, looked up): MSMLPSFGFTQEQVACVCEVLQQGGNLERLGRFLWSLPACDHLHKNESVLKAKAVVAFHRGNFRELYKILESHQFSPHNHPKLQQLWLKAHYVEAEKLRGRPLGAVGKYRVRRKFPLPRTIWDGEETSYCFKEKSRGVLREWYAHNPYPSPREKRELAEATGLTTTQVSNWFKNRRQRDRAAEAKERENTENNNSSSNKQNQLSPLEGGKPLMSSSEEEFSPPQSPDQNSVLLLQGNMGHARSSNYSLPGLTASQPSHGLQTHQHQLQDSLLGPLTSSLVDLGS
#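 Homogeneous AlphaScreen proximity assay pairing GST-Six1 with His-tagged Eya2 (added as 5X mix: 250 nM and 500 nM) in 50 mM Tris pH 8.0, 300 mM NaCl, 1 mM TCEP. Glutathione donor and nickel acceptor beads; 1 h, 37 °C, dark.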
# Numbers without * were called inactive; ? = inconclusive; . = not tested or not shown; [ ] = remark or other dose.
[1] O=C(CCn1nc(-c2ccc(F)cc2)ccc1=O)NCc1ccccc1
[2] C=CCn1c(SCC(=O)NC2CCCC2)nnc1-c1ccncc1
[3] CCOc1ccc(CNCc2cccnc2)cc1
[4] CCCc1nnc(NC(=O)COC(=O)c2cc(C)nc3ccccc23)s1
[5] COc1cc(C(=O)OCC(C)=O)ccc1OCc1c(C)noc1C
[6] O=C(Cn1nnc(-c2ccccc2NC(=O)c2ccco2)n1)NC1CCCCC1
[7] CCOc1ccc(-c2nnc(NC(=O)Cc3ccc(OC)cc3)o2)cc1
[8] COc1ccccc1NC(=O)CCN1C(=O)/C(=C\c2cc(OC)c(OC)c(OC)c2)SC1=S
[9] C[C@]12c3[nH]c4cc(-c5ccco5)ccc4c3CCN1C(=O)[C@@H](CC(=O)NCc1cccc(C(F)(F)F)c1)C[C@@H]2C(=O)N1CCCCC1
[10] CCOCCc1c(O)nc(SCCOc2ccc(C)c(C)c2)[nH]c1=O

Screen / compound no.,1,2,3,4,5,6,7,8,9,10
D2 agonist,-6.2,-2.3,-1.5,4.0,-0.4,-3.3,-3.6,-0.7,1.2,-2.9
D2 PAM,-6,-8,-9,7,7,-13,-7,2,-1,22
CtBP-E1A inh,7,4,-2,1,-1,0,0,1,-15,-6
gsp antagonist,9%,-5%,9%,?,5%,3%,?,-38%,-18%,-11%
gsp agonist,2%[15.4 µM],-3%,-5%,0%,-14%[15.4 µM],-1%,15%[15.4 µM],?,.,-1%[15.4 µM]
Six1-Eya2 inh,5,3,3,-3,0,4,?,0,-14,17

# Some values from the results shown:
# entry 10 – D2 agonist: -2.9
# entry 7 – gsp agonist: 15%[15.4 µM]

# (more compounds)
[11] Cc1ccc(OCc2cc(C(=O)N(C)CC3CCOCC3)no2)cc1C
[12] Cc1ccccc1N1C(N)=NC(N)=NC1(C)C
[13] Fc1c(F)c(F)c(SCn2cc(Br)cn2)c(F)c1F
[14] CCn1c(O)c(N=NC(=O)CNc2ccc(C)cc2)c2ccccc21
[15] O=C(CCC(=O)N1CCOc2ccc(Cl)cc21)NCCN1CCOCC1
[16] CCCn1c(SCC(=O)N2CCCCC2)nnc1C(C)C
[17] Cc1ccc(Cn2nnnc2CN2CCC(O)(c3ccccc3F)CC2)cc1
[18] CCc1c(C2(O)CCCCC2)[nH]c2ccc(C#N)cc12
[19] CCCn1c(SCC(=O)N(C)CC(=O)Nc2ccc(Cl)cc2)n[nH]c1=O
[20] CCOC(=O)C(C)Sc1nc(-c2ccccc2)nc2ccc(F)cc12 (stereo not drawn)

Screen / compound no.,11,12,13,14,15,16,17,18,19,20
D2 agonist,-6.6,-1.9,-2.3,-1.3,-1.8,5.0,2.8,2.8,-12,-2.8
D2 PAM,1,-11,4,-13,-8,0,-29,-52,-25,0
CtBP-E1A inh,9,3,.,-25,10,0,3,-2,-5,17
gsp antagonist,-12%,3%,6%,2%,-1%,.,1%,-11%,15%,2%
gsp agonist,10%,-4%,12%,25%,-22%,4%[15.4 µM],-25%,.,0%,17%
Six1-Eya2 inh,5,0,8,-20,5,6,1,-1,-15,6

[21] N#Cc1ccc(/C=N/NC(=O)c2cccc(S(=O)(=O)N3CCOCC3)c2)cc1
[22] CCCCOC(=O)c1ccc(NC(=O)CN2C(=O)NC3(CCCCCC3)C2=O)cc1
[23] CCc1nnc(NS(=O)(=O)c2ccc(NS(=O)(=O)c3ccccc3)cc2)s1
[24] CCN(CC)S(=O)(=O)c1ccc(F)c(C(=O)OC2CC(C)OC2=O)c1 (stereo not drawn)
[25] O=C(NCCc1ccccc1)c1ccc2c(c1)OCCO2
[26] COc1cccc(CNC(=O)C2CCN(S(=O)(=O)c3cnc[nH]3)CC2)c1
[27] O=S(=O)(/C=C/c1ccccc1)NCc1ccccc1Cl
[28] CC1Cc2ccccc2N1C(=O)CO/N=C/c1ccc(OC(F)F)cc1 (stereo not drawn)
[29] CC(C)C(=O)NC(Nc1cccc2cccnc12)C(Cl)(Cl)Cl (stereo not drawn)
[30] CC(C)CC1CCCCC1OC(=O)CN1CCCCC1 (stereo not drawn)

Screen / compound no.,21,22,23,24,25,26,27,28,29,30
D2 agonist,3.3,-2.3,-1.3,?,-1.6,-3.5,-8.0,-2.1,2.4,-1.7
D2 PAM,-6,-1,-11,5,-7,-12,-8,-7,4,-4
CtBP-E1A inh,-2,6,-20,7,-3,0,-19,10,-3,7
gsp antagonist,-3%,-14%,0%,3%,2%,5%,-5%,11%,-26%,0%
gsp agonist,-9%,-12%,-4%,?,-22%[15.4 µM],-29%,-11%[15.4 µM],-50%[inhibitor],-10%,6%[15.4 µM]
Six1-Eya2 inh,-4,-3,0,3,23,1,-2,-2,-12,-1

[31] CC(=O)c1cccc(NC(=O)C2COc3ccccc3O2)c1 (stereo not drawn)
[32] CN(C)S(=O)(=O)c1ccc(Cl)c(C(=O)Nc2ccccc2[N+](=O)[O-])c1
[33] CC1(C)CC(=O)C(C(N)=NC(=O)c2ccc([N+](=O)[O-])cc2)=C(O)C1
[34] COCCNC(=S)NCc1cccs1
[35] Cn1c(-c2cccc(Br)c2)cnc1NCc1cccnc1
[36] COCCn1c(SCC(=O)N2CCCc3ccccc32)nc2ccccc2c1=O
[37] N#Cc1nc(-c2ccc(F)cc2)oc1NCc1ccccc1
[38] C=CCN1CCN(C(=O)c2cc3c(s2)CCCC3)CC1
[39] NC(=O)c1ccc(NC(=O)CNCc2ccccc2Cl)cc1
[40] COc1cccc(NC(=O)c2ccc3c(SCC(=O)O)c4c(nc3c2)CCCC4)c1

Screen / compound no.,31,32,33,34,35,36,37,38,39,40
D2 agonist,0.9,3.4,-3.5,-1.9,-1.7,0.6,2.3,-5.0,-2.1,0.4
D2 PAM,0,16,23,-1,-24,2,-4,-28,-8,-12
CtBP-E1A inh,-3,-16,11,0,-1,4,3,-5,-8,-12
gsp antagonist,0%,1%,8%,-2%,3%,-5%,-12%,1%,-23%,-9%
gsp agonist,-13%,-47%[inhibitor],-4%[15.4 µM],-2%,?,5%,28%,?,9%[15.4 µM],22%
Six1-Eya2 inh,10,1,-9,2,-3,0,-6,2,-10,?

# Two records picked at random from the list so far:
[31] CC(=O)c1cccc(NC(=O)C2COc3ccccc3O2)c1 (stereo not drawn)
[40] COc1cccc(NC(=O)c2ccc3c(SCC(=O)O)c4c(nc3c2)CCCC4)c1

Screen / compound no.,31,40
D2 agonist,0.9,0.4
D2 PAM,0,-12
CtBP-E1A inh,-3,-12
gsp antagonist,0%,-9%
gsp agonist,-13%,22%
Six1-Eya2 inh,10,?

# Other results
[41] CCCC(=O)Nc1nc2ccc(NC(=O)c3ccccc3F)cc2s1
[42] COc1ccc(NC(=O)c2cc3c(s2)CCC(C)C3)cc1S(=O)(=O)N1CCOCC1 (stereo not drawn)
[43] O=C(c1nc2nc(-c3ccc(Cl)cc3)cc(C(F)(F)F)n2n1)N1CCOCC1
[44] COc1ccc2c(c1OC)OCC2C (stereo not drawn)
[45] COc1cccc(NC(=O)CSc2nnc3ccc(-c4ccccn4)nn23)c1
[46] Cc1ccc(S(=O)(=O)NC2CCSC2=O)cc1C (stereo not drawn)
[47] CC1=Nn2c(nnc2C2CCCCC2)SC1
[48] COc1ccc(NC(=O)CSc2c3c(nc4ccccc24)CCCC3)c(OC)c1
[49] O=C(C[n+]1ccc(/C=N/O)cc1)NC1CCCCC1
[50] COc1ccccc1NS(=O)(=O)c1cccc(C(=O)NNC(=O)c2ccc(Cl)nc2)c1

Screen / compound no.,41,42,43,44,45,46,47,48,49,50
D2 agonist,-1.6,3.3,-4.8,-3.4,-2.9,-3.7,-0.7,-8.1,-4.4,3.5
D2 PAM,-9,-18,-6,-8,-9,-16,-6,-20,-6,1
CtBP-E1A inh,-2,-22,-1,7,2,-1,-6,-1,-22,-5
gsp antagonist,-5%,-25%,5%,-1%,16%,16%,12%,-8%,15%,-1%
gsp agonist,-6%[15.4 µM],3%,-1%,-48%,-1%,-11%,0%,2%,-17%[15.4 µM],-21%
Six1-Eya2 inh,0,-2,-3,-5,8,3,10,-2,-4,-10

[51] O=C(CSc1cccc[n+]1[O-])Nc1cc2c(cc1Cl)C(=O)c1ccccc1C2=O
[52] O=C(Nc1cccc(F)c1)C1CCCN(c2cnccn2)C1 (stereo not drawn)
[53] NC(=O)C1CC(=O)N(c2ccc(OCC(=O)Nc3ccccc3F)cc2)C1 (stereo not drawn)
[54] O=C(N/N=C/c1cc2ccccc2nc1Cl)[C@H]1C[C@@H]1c1ccccc1
[55] Cn1c(=O)c2c(nc(SCc3nc(N)nc(N4CCCCC4)n3)n2C)n(C)c1=O
[56] Nc1ccn([C@@H]2O[C@H](CNCc3ccc(Oc4cc(-n5cccn5)ncn4)cc3)[C@@H](O)[C@H]2O)c(=O)n1
[57] COC(=O)[C@@]1(Cc2ccccc2)[C@H]2C(=O)N(Cc3ccccc3)C(=O)[C@H]2[C@H]2CN=C(SCc3ccc(C)cc3)N21
[58] NC(=O)c1ccccc1NC(=O)CSc1cn[nH]n1
[59] Nc1[nH]c(N=NC(=O)c2ccccc2)c2ccccc12
[60] C=C(C)C1Cc2c(C)nn(-c3nc(C)cc(C)n3)c2C1 (stereo not drawn)

Screen / compound no.,51,52,53,54,55,56,57,58,59,60
D2 agonist,3.0,1.9,-3.7,0.6,-5.0,-4.0,0.1,4.8,-4.8,-2.6
D2 PAM,16,-11,-4,-26,-15,.,-4,-3,-5,-23
CtBP-E1A inh,?,.,.,-24,2,-24,-4,3,-3,-2
gsp antagonist,-8%,5%,-1%,-14%,5%,.,-5%,10%,9%,-11%
gsp agonist,-8%,?,3%,-25%,-7%,7%,.,15%,-29%,9%
Six1-Eya2 inh,?,-3,4,-27,26,2,-7,3,6,11

[61] CCOc1ccc(N(C(=O)c2cc3ccccc3oc2=O)C2C=CS(=O)(=O)C2)cc1 (stereo not drawn)
[62] CC(=O)Nc1ccc(Nc2nc(-c3sc(C)nc3C)cs2)cc1
[63] COc1cc2c(cc1OC)C(CC#N)=NC(C)(C)C2
[64] CC(C)CN(C(=O)/C=C/c1nc2ccccc2s1)C1CCS(=O)(=O)C1 (stereo not drawn)
[65] COc1cccc(CNC(=O)CCC2CCCN(C(=O)c3cscn3)C2)c1 (stereo not drawn)

Screen / compound no.,61,62,63,64,65
D2 agonist,1.0,0.7,0.3,-1.0,-3.2
D2 PAM,-23,-18,-6,-3,-8
CtBP-E1A inh,-11,-9,-11,-1,0
gsp antagonist,2%,-15%,-3%,-13%,8%
gsp agonist,0%[15.4 µM],2%[15.4 µM],4%,?,-25%
Six1-Eya2 inh,-6,-12,-1,4,-1

# Numbers 64 to 65, quoted:
[64] CC(C)CN(C(=O)/C=C/c1nc2ccccc2s1)C1CCS(=O)(=O)C1 (stereo not drawn)
[65] COc1cccc(CNC(=O)CCC2CCCN(C(=O)c3cscn3)C2)c1 (stereo not drawn)

Screen / compound no.,64,65
D2 agonist,-1.0,-3.2
D2 PAM,-3,-8
CtBP-E1A inh,-1,0
gsp antagonist,-13%,8%
gsp agonist,?,-25%
Six1-Eya2 inh,4,-1
